Bioassay records: PubChem, National Center for Advancing Translational Sciences (NCATS)
RE007 growth inh: less growth of the S. pombe RE007 Vpr strain; S. pombe RE007 Vpr strain, BacTiter-Glo ATP luminescence, 24 h; control for the full effect not named in the record; Potency, µM (series often up to 92.2 µM), for inactives: at the highest dose activity change, negative = less growth; 0.21% of 360,000 active; AID 651644; active = well fitted falling curve with a large enough effect; inconclusive = small, poorly fitted or top-dose-only effect; inactive = no such curve, though single readings can be large or run the other way;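 note: % is set by controls: 0 for no effect and ±100 for the full control effect; nearly all actives have a fitted effect of over 50% in size; the assay follows cell death caused by Vpr and the record does not say whether a fall means rescue or toxicity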
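Fission yeast strain RE007, carrying one chromosomally integrated HIV-1 vpr copy, was seeded at OD 0.01 in PMG+AL medium with 23 nL pinned compound. After 24 h at 30 °C and 99% humidity, viability was read by BacTiter-Glo luminescence.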
Cruzain noTriton: blocks cruzain activity in detergent-free assay; P25779; purified cruzain, Z-FR-AMC fluorescence, no detergent; Potency, µM, inactives show max response, negative = inhibition, most hits filed as inhibitors; 2.3% of 200,000 active; AID 1476;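 note: plate controls were enzyme without inhibitor for no effect and buffer without enzyme for full effect; nearly all actives have a fitted effect of over 40% in size; top concentration of the series not given in the record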
Target sequence (P25779 123-467 limits assumed): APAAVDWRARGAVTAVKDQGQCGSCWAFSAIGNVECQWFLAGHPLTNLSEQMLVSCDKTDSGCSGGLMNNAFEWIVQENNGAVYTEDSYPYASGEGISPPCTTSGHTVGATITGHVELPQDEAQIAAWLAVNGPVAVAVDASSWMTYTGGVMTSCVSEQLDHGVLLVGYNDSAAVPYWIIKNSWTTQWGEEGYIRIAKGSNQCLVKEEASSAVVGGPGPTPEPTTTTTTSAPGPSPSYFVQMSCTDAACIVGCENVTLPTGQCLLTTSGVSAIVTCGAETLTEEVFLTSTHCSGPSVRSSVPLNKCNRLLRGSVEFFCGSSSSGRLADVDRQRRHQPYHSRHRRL
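Detergent-free condition (0.00005% Triton X-100) in acetate buffer pH 5.5 with DTT. 1.5 nM enzyme and compound were pre-mixed 15 min, then 2 uM Z-FR-AMC substrate added; reaction progress from fluorescence change between first and third reads (60 s).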
StopGo reporter: lowers the luciferase signal of an FMDV 2A StopGo reporter. human cells with a luciferase reporter of 2A StopGo recoding; control for the full effect not named in the record. Potency, µM (titrated, usually from 57.9 µM), inactives show top-dose signal change, negative = less light. 1.2% of 410,000 active. AID 1159524; active = well fitted falling curve with a large enough effect; inconclusive = small, poorly fitted or top-dose-only effect; inactive = no such curve, though single readings can be large or run the other way; tested in HEK293T cells; note: % is set by controls: 0 for no effect and ±100 for the full control effect; nearly all actives have a fitted effect of over 45% in size; luciferase light after 4 h
NS1 function inh: influenza NS1 inhibition; Potency, µM (doses to about 46.1 µM), for inactives: at the top dose activity, positive = more growth; 0.4% of 270,000 active; S. cerevisiae slowed by influenza A NS1, growth recovery by OD600; AID 2326; active means well fitted rising curve with a large enough effect; inconclusive means small, poorly fitted or top-dose-only effect; inactive means no such curve, though single readings can be large or run the other way; note: nearly all actives have a fitted effect of over 50% in size
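Compounds were scored for reversing the slow growth caused by influenza A NS1 in S. cerevisiae, measured by optical density at 600 nm. Assay medium contained 2% galactose at pH 6.0; NS1-free yeast of the same strain were the positive control.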
Marburg entry inh: inhibitors of Marburg virus binding or cell entry; Marburg virus pseudotyped entry inhibition, cell reporter; control for the full effect not named in the record; about a third of the inactives were read at about 46 µM; Potency, µM (titrated, usually from 37.8 µM), for inactives: top-dose activity change, negative = inhibition, actives largely listed as inhibitors; 1.8% of 300,000 active; active = well fitted inhibition curve with a large enough effect; inconclusive = small, poorly fitted or top-dose-only effect, or effect the other way; inactive = flat fitted curve, though single readings scatter; tested in HEK293 cells; about a fifth of its hits are not listed in these tables; note: % is set by controls: 0 for no effect and ±100 for the full control effect; luciferase read-out
Cruzain Triton: blocks cruzain activity in presence of Triton detergent. P25779. purified cruzain, Z-FR-AMC fluorescence, 0.01% Triton. Potency, µM, for inactives: max response, negative = inhibition, actives largely listed as inhibitors. 0.43% of 200,000 active. AID 1478;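 note: plate controls were neutral wells for no effect and buffer without enzyme for full effect; nearly all actives have a fitted effect of over 40% in size; top concentration of the series not given in the record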
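Steps: dispense cruzain (1.5 nM final) in acetate buffer pH 5.5 with DTT and 0.01% Triton X-100; pin-transfer compounds; incubate 15 min RT; add Z-FR-AMC (2 uM final); read fluorescence every 30 s, using the 60 s intensity change.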
LASV entry inh: Lassa virus entry inhibition. AID 540256. Lassa virus pseudotype entry inhibition, cell reporter; control for the full effect not named in the record. Potency, µM (doses to about 37.9 µM), without a hit: top-dose activity change, negative = inhibition, hits mostly inhibitors. 1.2% of 300,000 active; active means well fitted inhibition curve with a large enough effect; inconclusive means small, poorly fitted or top-dose-only effect, or effect the other way; inactive means flat fitted curve, though single readings scatter; tested in HEK293 cells; note: % is set by controls: 0 for no effect and ±100 for the full control effect; nearly all actives have a fitted effect of over 50% in size; luciferase read-out
SARS PLP yeast: blocks SARS-CoV papain-like protease in a yeast assay; S. cerevisiae expressing SARS-CoV PLpro, growth rescue; control for the full effect not named in the record; Potency, µM (titrated, usually from 32.9 µM), inactives show top-dose activity, positive = growth rescue; 0.19% of 330,000 active; active means well fitted rising curve with a large enough effect; inconclusive means small, poorly fitted or top-dose-only effect; inactive means no such curve, though single readings can be large or run the other way; note: 0% is about no effect; nearly all actives have a fitted effect of over 55% in size; growth read by luminescence after 48 h
* = called active by the depositor; ? = inconclusive; . = no result given; & = joins results of further samples; [ ] = another dose, or the depositor's remark. Unless noted, calls come from the whole dose curve; as a rule, active = well fitted curve in the direction sought with a large enough effect; inconclusive = small, poorly fitted or top-dose-only effect, or another doubt; inactive = no such curve, though single readings can be large; an effect the other way counts as inactive or inconclusive. Potency is the fitted concentration of half-maximal effect.

SMILES | RE007 growth inh | Cruzain noTriton | StopGo reporter | NS1 function inh | Marburg entry inh | Cruzain Triton | LASV entry inh | SARS PLP yeast
CS(=O)(=O)N1CCCC(C(=O)NCc2ccccn2)C1 (stereo unspecified) | -2% | 4% | . | -4% | ? | 5.4% | 12% | 8%
CC1(C)C2CCC1(CS(=O)(=O)Nc1ccccc1)C(=O)C2 (stereo unspecified) | 13% | . | 9% | . | 7%[46.1 µM] | . | -10%[46.1 µM] | -2%
O=C(Nc1ccc(O)c(-c2nc3ccccc3o2)c1)c1cccs1 | . | -8% | -17% | . | 3%[46.1 µM] | 1.7% | ? | .
COCCn1cnnc1SCC(=O)Nc1ccccc1C(=O)Nc1ccc2c(c1)OCO2 | -1% | -1% | 22% | 5% | ? | -1.3% | 23% | 9%
Cc1cccc(NC(=O)C(=O)NCC2CCCN2S(=O)(=O)c2ccccc2)c1 (stereo unspecified) | -17% | . | 3% | . | -20% | . | -4% | 3%
CCOC(=O)c1cnc(SC)nc1Oc1cccc(NS(=O)(=O)c2ccc(F)cc2)c1 | 9% | -18% | 2% | -6% | -33% | -1.5% | ? | 15%
CNc1nc(N)c(C(=O)C23CC4CC(CC(C4)C2)C3)s1 | -5% | . | 7% | -7% | ? | . | -14%[46.1 µM] | -2%
CCC(=NC(C)c1ccccc1)c1c(O)n(C)c(=O)n(C)c1=O (stereo unspecified) | 3% | -3% | 13µM* | -76% | ? | 1.3% | ? | 3%
CC1(C)CN=C(Nc2ccc(F)c(F)c2)S1 | 6% | -4% | -7% | 1% | . | 0.3% | . | 2%
O=c1nc2n(c3ccc(Br)cc13)CCS2 | 5% | -7% | -14% | 0% | 9% | -3.0% | 3% | -6%
COc1ccc(NC(=O)[C@@]2(CC(=O)O)CC(/C=C/c3ccccc3)=NO2)cc1 | -12% | . | 7% | 1% | 6% | . | ? | 1%
Cc1cccc(N2CCN(C(=O)Cn3nc(C)c4sc5ccccc5c4c3=O)CC2C)c1 (stereo unspecified) | . | ? | -10% | . | -12%[46.1 µM] | 4.4% | -2%[46.1 µM] | .
COc1ccc(NC(=O)CCC(=O)c2cccs2)c(OC)c1 | 7% | . | 51%[activator] | 3% | 3%[46.1 µM] | . | ? | 1%
COc1ccc(Cl)cc1NC(=O)Cn1nnc(C(=O)NCc2ccc3c(c2)OCO3)c1N | -21% | ? | -9%&-14% | 11% | -2%&-2%[46.1 µM] | -0.2% | -11%[46.1 µM] | -3%
COc1ccc(NC(=O)CC2Nc3cccc4cccc(c34)NC2=O)cc1 (stereo unspecified) | -8% | -1% | ? | 15% | -3%&-3%[46.1 µM] | -7.8% | -1%[46.1 µM] | 9%
COc1ccc(-c2cccc(NS(=O)(=O)c3ccc([N+](=O)[O-])cc3)c2)nn1 | 18% | . | 9% | . | ? | . | 1% | -10%
COc1ccc(CNC(=O)c2csc3c2CCCC3)cc1 | -21% | . | 20% | . | 11% | . | 1% | -1%
CCc1ccc(NC(=O)Cn2ncn3c(cc4ccccc43)c2=O)cc1 | -5% | -1% | -8%&-1% | 24% | -7%&-7%[46.1 µM] | 4.4% | . | 4%
COc1ccccc1NC(=O)CCCCCN1C(=O)c2cccc3cccc(c23)C1=O | -3% | . | 0% | -2% | 8% | . | ? | 4%
COCCCNC(=S)N(CCO)Cc1cc2cc3c(cc2[nH]c1=O)OCO3 | -17% | . | -9% | 4% | 7%[46.1 µM] | . | 4%[46.1 µM] | -4%
C=CCn1c(C)cc(C(=O)CSc2nnc(Cc3ccccc3)o2)c1C | -3% | -3% | 33%[activator] | -105% | 1% | -11% | ? | ?
COCCNC(=O)c1ccc(Cn2c(=S)[nH]c3cc4c(cc3c2=O)OCO4)cc1 | 15% | -9% | 32%[activator] | -18% | 0% | 3.1% | -3% | -1%
CC(C)Cn1c(/C=C/c2ccco2)nc2ccccc21 | 1% | -5% | -9% | -32% | -22% | -9.5% | 2% | -28%
CC1(c2ccc3c(c2)OCO3)NC(=O)N(CC(=O)Nc2ccc(N3CCOCC3)cc2)C1=O (stereo unspecified) | -5% | 1% | -2% | 3% | ? | 0.2% | -10% | 2%
Cc1nnsc1C(=O)N1CCCC(Nc2ccc(C(C)C)cc2)C1 (stereo unspecified) | -2% | . | -6% | 1% | . | . | . | 3%
CCN1CCN(c2nc3ccccc3nc2C(C#N)C(=O)OC2CCCCC2)CC1 (stereo unspecified) | 10% | 6% | 0% | 22%&-18% | ? | -0.3% | ? | ?
Cc1ccc(SCC(=O)NCCc2ccccc2)cc1 | 0% | . | 18% | 24% | -8%[46.1 µM] | . | ? | -7%
CCC(=O)Nc1nnc(SCC(=O)NCc2ccc3c(c2)OCO3)s1 | -2% | . | -6% | -3% | ? | . | 0% | -3%
CCN1CCN(c2ccc(S(=O)(=O)N3CCCCC3)cc2NC(=O)c2ccc([N+](=O)[O-])o2)CC1 | 0% | . | -3% | . | ? | . | ? | 1%
COC(=O)c1sc(NC(=O)c2ccc3c(c2)OCO3)c(C#N)c1C | -3% | . | -8% | . | -2%[46.1 µM] | . | 3% | .
Cc1nnc(SCC(=O)NNC(=O)COc2ccc(Cl)cc2)n1C | -7% | . | 19% | -2% | 0%[46.1 µM] | . | 0% | -13%
COc1ccc(-c2cccc(C3CC=CC4C3C(=O)N(Cc3ccccc3)C4c3ccc4ccccc4c3)c2)cc1 (stereo unspecified) | 1% | . | ? | -1% | . | . | . | 0%
CCN(C(=O)CSc1cc(-c2ccccc2)c2ccc(OC)cc2n1)C1CCS(=O)(=O)C1 (stereo unspecified) | 12% | ? | ? | 24% | -48% | -7.6% | ? | 14%
CC(C)C(=O)NC(Oc1ccccc1Cl)C(Cl)(Cl)Cl (stereo unspecified) | 6% | . | -19% | . | -9%[46.1 µM] | . | -23%[46.1 µM] | 1%
COc1ccccc1N(CC(=O)NCCc1ccccc1)C(=O)CCC(=O)Nc1ccccn1 | -13% | . | -4% | 1% | -19%[46.1 µM] | . | ? | -1%
COCC(=O)Nc1nnc(SCC(=O)N2C(C)CCCC2C)s1 (stereo unspecified) | -12% | . | 20% | -3% | 7%[46.1 µM] | . | 1% | 0%
Cc1ccccc1C(=O)Nc1nc(SCc2ccc(Cl)cc2)n[nH]1 | 12% | . | -2% | 2% | -15%[46.1 µM] | . | 0% | 0%
O=C(CSc1nccn1-c1ccccc1)Nc1ccc2c(c1)OCO2 | -6% | -10% | 3% | -89% | 0%[46.1 µM] | 0.4% | ? | -8%
COc1cccc(N2CCN(C(=O)c3ccc(Cn4c(=O)[nH]c5cc(OC)c(OC)cc5c4=O)cc3)CC2)c1 | . | ? | ? | . | ? | -3.9% | -4%[46.1 µM] | .
COc1ccc(/C=C/c2c([N+](=O)[O-])c(=O)n(C)c(=O)n2C)cc1O | 1% | -7% | ? | -7% | ? | -3.0% | -24% | -2%
CCCCCOC(=O)Nc1nnc(CCC)s1 | 5% | 23% | 0% | -2% | 14% | 2.5% | -12% | 16%
CCc1cnc2c(c1SCC(=O)Nc1cc(Cl)ccc1OC)c(=O)n(C)c(=O)n2C | . | 0% | -6% | . | . | 1.0% | 1%[46.1 µM] | .
O=Cc1c(C(=O)O)n(CC(=O)O)c2ccccc12 | -8% | -2% | -20% | 6% | 23% | 2.2% | 8% | -6%
COc1ccccc1C(=O)Nc1cccc(S(=O)(=O)N2CCCC2)c1 | 11% | . | -24% | 11% | . | . | . | -1%
O=C(NC1CC1)[C@@H]1CSC2c3ccccc3C(=O)N21 (stereo partly specified) | 12% | . | -20% | 14% | . | . | . | 6%
COc1ccc(Cc2cc(-c3ccc(F)cc3)n[nH]c2=O)cc1 | 1% | . | -14% | 2% | . | . | . | -5%
O=C(Nc1cccnc1Oc1ncnc2cc(Cl)ccc12)c1ccc(F)cc1 | -18% | . | 0% | 14% | -24% | . | 8% | 0%
CC(C)NS(=O)(=O)c1ccc(N2C(=O)c3ccccc3C2=O)cc1 | -15% | 3% | -21% | 0% | -2% | -0.3% | 7% | 5%
Cc1onc(-c2ccccc2Cl)c1C(=O)Oc1ccccc1F | . | -7% | -16% | . | . | 0.5% | -3%[46.1 µM] | .
COc1cccc2c1N1C(=O)c3c(C(=O)O)cccc3C1CC2(C)C (stereo unspecified) | -9% | 4% | -20% | -43% | ? | 4.0% | -3% | -1%
CC(OC(=O)Cc1ccccc1F)C(=O)Nc1ccc(Cl)cn1 (stereo unspecified) | -16% | . | 10% | . | 1% | . | 11% | 7%
CCOc1ccc(NC(C)=O)cc1[N+](=O)[O-] | -8% | . | -9% | -1% | . | . | . | -1%
COc1ccc(OC)c(NC(=O)Cn2cc(C(=O)c3ccc(Cl)cc3)c(=O)c3cc(OC)ccc32)c1 | . | 11% | -8% | . | -22%[46.1 µM] | -5.0% | -5%[46.1 µM] | .
CCOC(=O)C(C)Sc1nnc(Cn2c(=O)sc3ccccc32)n1-c1ccccc1 (stereo unspecified) | 14% | 2% | 11% | -2% | 0% | -6.1% | . | -8%
CC1=NN(c2ccccc2)C(=O)C1(C)C | 9% | -8% | 0% | -4% | 16% | 7.0% | -3% | -1%
Cc1ccc2c(C(=O)CNc3nncs3)c(C)[nH]c2c1 | 3% | . | -14% | -8% | . | . | . | 0%
O=S(=O)(c1ccc2c(c1)CCC2)N1CCNCC1 | -13% | . | -11% | . | 14% | . | 7% | 5%
Cc1cccc2nc(-c3cccnc3)c(NCCC(C)C)n12 | -11% | . | -26% | -5% | 15% | . | -5% | -2%
CCOc1ccc2[nH]c(C)c(CN3CCCCCC3)c(=O)c2c1 | 4% | . | -7% | -12% | 0% | . | 8% | 2%
CCCc1[nH]nc2c1C(c1ccc(OC)c(Cn3nnc4ccccc43)c1)C(C#N)=C(N)O2 (stereo unspecified) | -10% | -12% | -19% | -83% | -8% | -6.6% | -6% | .
